YopH inh – YopH (Yersinia) phosphatase inhibition; fluorescence Ex485/Em525; inhibition, %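 (about 10 µM by stock and volumes)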; 140,000 tested, 0.16% active;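 active means inhibition of 50% or more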;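 further: controls were vehicle for no effect and minimum signal wells for full effect; inactives centre near -20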
Mtb H37Rv – M. tuberculosis H37Rv growth inhibitors, H37Rv strain (AID 1626). M. tuberculosis H37Rv growth inhibition; higher % means a stronger effect. inhibition, % at 10 µM; hits with a dose series show IC50 in µM. 220,000 tested, 0.95% active;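 active means confirmed in a dose series; inconclusive means inhibition above 80% but not taken into the dose series; inactive means below 80% or under 30% at every dose of the series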;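 further: bacteria incubated seven days before Alamar blue readout; 0% = bacteria only wells and 100% = bacteria with antibiotic wells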
RecA splice inh – blocks M. tuberculosis RecA intein splicing. cell-free RecA intein splicing, fluorescence. inhibition, %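 (about 9 µM by stock and volumes)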. 290,000 tested, 0.75% active. AID 2221; in the data active means inhibition above about 30%; inconclusive means no clear call, values can overlap the other calls;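 further: 0% = vehicle wells and 100% = reference inhibitor control wells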
Target sequence (P9WHJ3 whole entry, looked up, canonical isoform): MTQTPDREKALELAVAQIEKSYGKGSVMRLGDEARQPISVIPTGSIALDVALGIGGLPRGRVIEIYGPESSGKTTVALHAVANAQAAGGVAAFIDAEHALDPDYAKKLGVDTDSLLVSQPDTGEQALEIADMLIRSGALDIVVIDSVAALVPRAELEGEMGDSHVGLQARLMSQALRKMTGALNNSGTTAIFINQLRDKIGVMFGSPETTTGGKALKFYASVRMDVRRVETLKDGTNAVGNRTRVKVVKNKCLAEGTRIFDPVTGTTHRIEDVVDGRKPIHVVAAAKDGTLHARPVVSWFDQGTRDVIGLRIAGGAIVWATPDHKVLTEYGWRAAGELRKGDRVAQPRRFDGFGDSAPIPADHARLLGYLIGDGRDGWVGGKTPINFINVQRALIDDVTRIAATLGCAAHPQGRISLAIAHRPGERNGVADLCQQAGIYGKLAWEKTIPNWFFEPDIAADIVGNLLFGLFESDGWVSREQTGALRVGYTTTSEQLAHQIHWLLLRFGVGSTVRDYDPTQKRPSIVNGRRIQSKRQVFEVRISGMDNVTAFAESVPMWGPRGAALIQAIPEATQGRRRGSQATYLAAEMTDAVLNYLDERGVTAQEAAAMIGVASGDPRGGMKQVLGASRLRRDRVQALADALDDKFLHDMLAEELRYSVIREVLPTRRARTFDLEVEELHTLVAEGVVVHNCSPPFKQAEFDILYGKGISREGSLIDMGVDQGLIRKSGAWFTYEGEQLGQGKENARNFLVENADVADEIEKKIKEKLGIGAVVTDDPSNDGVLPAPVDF
Mtb betalactam – beta-lactam sensitization of Mtb H37Rv. inhibition, % at 25 µM. AID 434955. M. tuberculosis H37Rv growth with meropenem, percent inhibition; hits of this screen are not shown here. 330,000 tested, 0.27% active;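 active means about 74% or more and at least 40 points above the plate without the antibiotic, then above 30% in a dose series; inconclusive means first-round hits that could not be retested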;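 further: growth measured after seven days incubation then overnight dye step; 0% = bacteria only wells and 100% = bacteria with antibiotic; twin plates without the antibiotic show which effects depend on it; some results filed as inactive read as strong as hits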
Arbovirus inh – blocks arbovirus infection | arbovirus infection cell-based antiviral screen | inhibition, % at 10 µM | 200,000 tested, 0.37% active | AID 1251;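 active means inhibition from about 30%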;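 further: bluetongue infection of BSR cells; cell survival read as ATP light after 72 h; 0% = infected wells without compound and 100% = uninfected wells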
Arbovirus inh repeat – also measured in Arbovirus inh; calls as there; inhibition, %; measured here: 10K subset replicate screen; many hits read low in the repeat;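 first of two repeat runs on a subset; 0% = infected and 100% = uninfected wells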
Numbers without * were called inactive; ? = inconclusive; nt = no result given. Some of the compounds tested; count on the stated rates, not on these rows.

SMILES	YopH inh	Mtb H37Rv	RecA splice inh	Mtb betalactam	Arbovirus inh	others
CCCN1CCC(NC(=O)CCc2nnc(Cc3cc(OC)ccc3OC)o2)CC1	nt	-5%	0.7	4	5
Cc1cccc(-c2nnc(SCC(=O)O)n2Cc2ccccc2)c1	nt	nt	-1.3	-8	nt
COc1ccc(F)cc1CN1CCN(C(=O)CCC(=O)Nc2nnc(CC(C)C)s2)CC1	nt	nt	-1.5	3	nt
O=C(Cc1ccc(S(=O)(=O)N2CCOCC2)s1)Nc1ccccc1Br	nt	-7%	-2.7	-9	nt
COc1ccc(S(=O)(=O)NC(C)C(=O)NCc2ccccn2)cc1Cl (configuration not stated)	nt	nt	-0.4	1	nt
CCOc1cc(/C=C/C(=O)NCCc2ccc(S(N)(=O)=O)cc2)ccc1OCC(C)C	nt	-1%	-1.1	-4	nt
O=C(O)C1CCC(CNCc2ccncc2)CC1 (configuration not stated)	nt	nt	0.4	-5	nt
CCOC(=O)C1=C(O)/C(=C/c2cc(OC)c(O)c(OC)c2)SC1=Nc1ccc(OC)cc1	-18	10%	4.3	nt	-1
COc1ccc(/C=N/Nc2cc(C)nc(N3CCOCC3)n2)cc1OC	nt	-12%	-2.4	24	nt
Cc1cc(=O)oc2ccc(OCc3ccccc3)cc12	nt	nt	-0.9	1	nt
COc1ccccc1C(=O)Oc1cc(N)n(S(=O)(=O)c2ccc(C)cc2)n1	-46	3%	4.5	-6	1
Cc1nn2c(=O)cc(CSc3ccccc3NC(=O)c3ccccc3)nc2s1	nt	nt	-1.0	-4	nt
CCOc1ccc2[nH]c3c(NCCOC)ncnc3c2c1	nt	nt	0.1	6	nt
C=CCNC(=O)Nc1ccc(F)cc1F	nt	0%	-2.0	-5	2
CC1(C)CC(=O)C2=C(C1)N(CCN1CCOCC1)C1=C(C(=O)CC(C)(C)C1)C2c1ccc(Cl)cc1	nt	-4%	-54	-6	nt
CC1CCCC(NC(=O)c2n[nH]c(=O)c3ccccc23)C1C (configuration not stated)	-8	1%	-0.9	-10	-8
CCOCCCNC(=O)Cc1ccc(-n2c(CC)nc3cccnc32)cc1	nt	nt	2.6	-5	nt
O=C(c1cc(-c2ccc(Cl)cc2Cl)on1)N1CCCC1	nt	nt	3.8	2	nt
Cc1ccc(-c2cc3ccccc3nc2N2CCCC2)cc1	-16	52%	12	99	-3
NCCCC[C@H]1CNC(=O)C(=O)N1CC1CCCCC1	nt	2%	1.1	1	nt
COc1ccc(-c2cc(C(=O)Oc3ccc([N+](=O)[O-])cc3)c3ccccc3n2)cc1	-56	1%	2.7	23	4
CCC(CC)c1nnc(NC(=O)CCN2C(=O)c3ccccc3C2=O)s1	-14	-7%	0.9	-4	-1
CCC(C)NC(=O)C1CCC(CNS(=O)(=O)c2cccc3nsnc23)CC1 (configuration not stated)	nt	nt	0.1	-3	nt
O=C(O)CC12CC3CC(C1)CC(n1ncc(NCc4ccccc4)c(Cl)c1=O)(C3)C2	nt	-9%	9.3	-7	nt
COc1ccc(C)cc1NC(=O)Cn1cnc2sc(C)c(S(=O)(=O)N3CCOCC3)c2c1=O	5	-4%	0.1	-6	4	Arbovirus inh repeat=-1
New compounds follow
SMILES	YopH inh	Mtb H37Rv	RecA splice inh	Mtb betalactam	Arbovirus inh	others
COc1ccc(C(=O)OCC(=O)c2ccccc2)cc1S(=O)(=O)N1CCOCC1	-30	-2%	-6.2	?	-1
O=C(N/N=C/c1ccco1)c1cc([N+](=O)[O-])cc([N+](=O)[O-])c1	-39	72%	-6.7	99	-10
CCOC(=O)c1sc(NC(=O)/C=C/c2ccc(F)cc2)nc1C	nt	-1%	-2.9	7	-1
N#Cc1ccccc1Sc1ccccc1C(=O)Nc1ccccc1	-22	-22%	0.7	-2	-4
COc1ccc(-c2cc(=O)c3ccccc3n2C)cc1	-30	-4%	-0.6	-5	0
O=C(CNC(=O)c1cccs1)NCC(=O)OCc1ccc(F)cc1	nt	-1%	-1.6	4	-3
CCN(C(=O)COC(=O)c1cnc(C)cn1)C1CCCCC1	-35	-2%	-1.0	-4	3
CC1=C(C(=O)OCC(C)C)C(c2ccsc2)C2=C(CCCC2=O)N1 (configuration not stated)	-9	3%	-11	-5	-18
CN(C)CC(C)(C)CNC(=O)c1cc(=O)c2ccccc2o1	-16	1%	-1.7	0	11
O=S1(=O)CCOCCCN1Cc1ccc(Cl)cc1	nt	nt	-1.6	3	nt
COC(=O)[C@H](CCSC)NC(=O)Nc1ccc(C)cc1	-41	-7%	1.0	-6	4
COc1ccc(Nc2nc(N(C)c3ccccc3)nc(N)c2[N+](=O)[O-])cc1	nt	nt	-0.1	-7	nt
CCC(=C/c1sc2ccc3ccccc3c2[n+]1C)/C=C1\Sc2ccc3ccccc3c2N1C	nt	nt	-0.1	101	nt
O=C(CN1C(=O)S/C(=C\C=C\c2ccccc2)C1=O)NC1CCS(=O)(=O)C1 (configuration not stated)	nt	nt	11	-4	nt
COc1ccc(C(=O)NCc2cn3ccccc3n2)cc1	-45	2%	-3.2	-12	5
COc1cc(CN2CCC(C(=O)N3CCCC(C)C3)CC2)cc(Br)c1O (configuration not stated)	-52	-1%	-1.5	-1	2
COc1cc(C2C(C#N)=C(N)N(c3cccnc3)C3=C2C(=O)CC(C)(C)C3)ccc1O (configuration not stated)	-10	-1%	-7.3	1	-2
CCc1nn(CC(=O)N2CCN(Cc3ccc4c(c3)OCO4)CC2)c(=O)c2cc3occc3n12	1	-2%	-2.2	nt	-2
CCOC(CNC(=O)CN1C(=O)COc2ccc(S(=O)(=O)N3CCCC3)cc21)OCC	nt	nt	1.3	1	nt
Cn1c(=O)c2c(nc(CN3CCc4ccccc4C3)n2CCCO)n(C)c1=O	nt	-7%	3.6	3	-2
CCOc1ccccc1NC(=O)CSc1nc(=O)n(CCCN2CCOCC2)c2c1CCC2	nt	nt	-0.6	-12	nt
Cc1[nH]n(-c2ccccc2)c(=O)c1/C=N/c1ccccn1	-32	-9%	3.2	-2	-4
Cc1cc2oc(=O)cc(CN3CCN(S(=O)(=O)c4cccs4)CC3)c2cc1C(C)C	-20	0%	-0.4	0	-9
CCOC(=O)c1[nH]c(C)c(C(=O)N(CC)CC)c1C	-10	-4%	0.8	?	-3	Arbovirus inh repeat=-4
CCOC(=O)CNC(=O)/C=C/c1c(Cl)cccc1Cl	-24	7%	0.8	12	-5
Next structures.
SMILES	YopH inh	Mtb H37Rv	RecA splice inh	Mtb betalactam	Arbovirus inh	others
CC(C)OC(=O)c1cccc2c1C(=O)c1ccccc1-2	nt	4%	3.6	-8	nt
O=C(CCNC(=O)c1ccccc1Cl)Nc1ccc(Br)c(C(F)(F)F)c1	-18	3%	4.5	5	3
Brc1ccc(COc2cccc3cccnc23)cc1	nt	nt	5.9	5	nt
CCc1nnc(SCc2ccc(CSc3nnc(CC)n3N)cc2)n1N	-10	-4%	-5.2	nt	3
COc1ccccc1C(=O)NCCn1cc(SCC(=O)Nc2cc(C)on2)c2ccccc21	-7	3%	0.6	-7	-5
Cc1ccccc1C(=O)N1CCN(c2ccc(NC(=O)c3ccccc3[N+](=O)[O-])cc2)CC1	nt	2%	-2.4	-2	-7
CSc1nc(SCC(=O)NC(c2ccccc2)c2ccccc2)c2c3c(sc2n1)CN(C)CC3	-16	-3%	18	87	-7
CSc1nc(C)c(CCOC(=O)c2cccc(C)c2)c(=O)[nH]1	2	1%	0.6	2	4
CC(C)(C)C(=O)Cn1c(=N)n(Cc2ccccc2)c2ccccc21	0	2%	13	82	0
CCOC(=O)C1=C(Cn2ccc(C(F)(F)F)n2)NC(=O)NC1c1ccc2c(c1)OCO2 (configuration not stated)	-22	11%	2.9	3	-3
COc1ccccc1NC(=O)CSc1nnc(CNC(=O)c2cccs2)o1	nt	nt	-2.6	0	nt
CC[n+]1cc(-c2ccccc2)nc(N2CCOCC2)n1	-36	-4%	0.0	-8	-2
Cc1cc(C)c2oc(C(=O)N3CCN(C)CC3)cc(=O)c2c1	nt	nt	-2.2	3	nt
Cc1nn(-c2ccc(F)cc2)c(Cl)c1/C=C(\CC(=O)O)c1nc2ccccc2s1	-36	10%	0.7	-6	5
NC(=O)[C@H]1CC2(CC(c3cccc(NC(=O)c4ccccc4)c3)=NO2)CN1C(=O)[C@H]1CCC(=O)N1 (some centres not stated)	-18	-16%	0.7	7	3
CCOC(=O)CC1=CC(C)(CC(=O)OCC)C(C#N)(C#N)C(N)=C1C#N (configuration not stated)	-28	-9%	7.3	3	0
N#Cc1c(-c2ccc(Cl)cc2Cl)nc2n(c1=O)CCS2	9	-1%	-2.8	-12	3
Cc1ccccc1-c1nc(C(=O)NCC2CCCO2)cc2c1[nH]c1ccccc12 (configuration not stated)	nt	nt	15	9	nt
CCOc1ccccc1NC(=O)c1cnc(NS(=O)(=O)c2ccccc2)nc1	nt	nt	0.2	22	nt
COc1ccc(S(=O)CC(=O)Nc2ccccc2Cl)cc1 (configuration not stated)	nt	-8%	-1.2	1	5
CCOc1ccccc1OCCOc1cccc(C(F)(F)F)c1	-2	-7%	5.2	-5	-7
Nc1cccc2c1C(=O)N(C(=O)/C=C/c1cccc(F)c1)C2=O	nt	5%	-185	1	1
CC(=O)NC1C(OC(=O)/C=C/c2ccccc2)OC(COC(C)=O)C(OC(C)=O)C1OC(C)=O (configuration not stated)	nt	nt	-3.7	0	nt
O=C(CC1C(=O)NCCN1Cc1ccc(-c2ccccc2)cc1)NC1CCC1 (configuration not stated)	nt	4%	1.5	3	5
COC(=O)c1cn(C(=O)c2cccc3ccccc23)c2ccccc12	nt	1%	1.9	-1	nt

Looked up one by one from the entries so far:
SMILES	YopH inh	Mtb H37Rv	RecA splice inh	Mtb betalactam	Arbovirus inh	others
O=C(CC1C(=O)NCCN1Cc1ccc(-c2ccccc2)cc1)NC1CCC1 (configuration not stated)	nt	4%	1.5	3	5
CCOc1ccccc1NC(=O)c1cnc(NS(=O)(=O)c2ccccc2)nc1	nt	nt	0.2	22	nt

Compounds shown so far with a Cl atom, in the order listed:
SMILES	YopH inh	Mtb H37Rv	RecA splice inh	Mtb betalactam	Arbovirus inh	others
COc1ccc(S(=O)(=O)NC(C)C(=O)NCc2ccccn2)cc1Cl (configuration not stated)	nt	nt	-0.4	1	nt
CC1(C)CC(=O)C2=C(C1)N(CCN1CCOCC1)C1=C(C(=O)CC(C)(C)C1)C2c1ccc(Cl)cc1	nt	-4%	-54	-6	nt
O=C(c1cc(-c2ccc(Cl)cc2Cl)on1)N1CCCC1	nt	nt	3.8	2	nt
O=C(O)CC12CC3CC(C1)CC(n1ncc(NCc4ccccc4)c(Cl)c1=O)(C3)C2	nt	-9%	9.3	-7	nt
O=S1(=O)CCOCCCN1Cc1ccc(Cl)cc1	nt	nt	-1.6	3	nt
CCOC(=O)CNC(=O)/C=C/c1c(Cl)cccc1Cl	-24	7%	0.8	12	-5
O=C(CCNC(=O)c1ccccc1Cl)Nc1ccc(Br)c(C(F)(F)F)c1	-18	3%	4.5	5	3
Cc1nn(-c2ccc(F)cc2)c(Cl)c1/C=C(\CC(=O)O)c1nc2ccccc2s1	-36	10%	0.7	-6	5
N#Cc1c(-c2ccc(Cl)cc2Cl)nc2n(c1=O)CCS2	9	-1%	-2.8	-12	3
COc1ccc(S(=O)CC(=O)Nc2ccccc2Cl)cc1 (configuration not stated)	nt	-8%	-1.2	1	5
